High-throughput results as filed in PubChem BioAssay.
CBX7 AlphaScr: CBX7 chromodomain binding inhibitors, primary screen, biochemical, AlphaScreen; Chromobox protein homolog 7 (Homo sapiens), O95931; AlphaScreen His6-CBX7 / biotin-H3K27me3 peptide binding; stronger effect = lower value; normalised signal (fraction of DMSO) (no concentration beside the values); hit rate 1.1% among 66,000; AID 1224903, 2016; in the data active = normalised signal below about 0.5;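 also: 100 nL library stock added to about 20 µL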
Target sequence (O95931 whole entry, looked up): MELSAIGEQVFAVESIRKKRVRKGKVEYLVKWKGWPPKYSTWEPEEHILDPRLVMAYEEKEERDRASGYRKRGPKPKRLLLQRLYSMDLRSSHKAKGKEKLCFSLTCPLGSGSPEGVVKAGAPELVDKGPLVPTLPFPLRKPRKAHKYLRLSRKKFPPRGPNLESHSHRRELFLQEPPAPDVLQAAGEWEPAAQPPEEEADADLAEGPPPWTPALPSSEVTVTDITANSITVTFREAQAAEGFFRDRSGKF
CBX7 AlphaScr z-score: further read-out of CBX7 AlphaScr, marked with its call; z-score; measured here: z-score of CBX7 signal; some inactives read as strong as hits; reference of the scale not given here;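 same signal on another scale; lower means less binding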
Starred values were filed as active, the others as inactive; & = joins results of further samples.

SMILES	CBX7 AlphaScr	CBX7 AlphaScr z-score
CCCCN(CC)CCCNC(=O)C1CCN(c2nc3ccc(CC)cc3s2)CC1	1.8	8.8
FC(F)(F)C(F)(F)c1nnc2c3ccccc3c(NCc3ccccc3)nn12	0.992&1.07	-0.201&1.25
CCC(C(=O)Nc1ccccc1F)n1c(SCc2ccc(C)cc2)nc2ccncc21 (configuration not stated)	0.924	-2.28
Cc1cc(N2CCN(C)CC2)nc2ccc(NC(=O)CCC(=O)N3CCCC3)cc12	0.993	-0.126
CCCc1cc(C(=O)Nc2ccn(Cc3ccc(C)cc3)n2)no1	1.1	2.16
CCCNC(=O)Cn1cnc2sc(C(=O)N3CCC(Cc4ccccc4)CC3)c(C)c2c1=O	1.03	1.11
O=C(O)c1ccc(-n2nnnc2SCc2ccccc2Br)cc1	0.919	-0.774
CC1CCCC(NC(=O)c2cc(=O)[nH]c3ccc(S(=O)(=O)N4CCCCCC4)cc23)C1C (configuration not stated)	1.04	1.61
COc1ccc(OCC(=O)Nc2ncc(Cc3ccc(F)cc3)s2)cc1	1.01	0.297
O=c1cc(-c2ccccc2)nc(SCc2nc3ccccc3[nH]2)[nH]1	1.11	1.23
O=S(=O)(Nc1ccc2oc(-c3ccc(Cl)cc3)nc2c1)c1ccccc1	1.04	0.476
Cc1nc(Oc2ccc(Cl)cc2)c2oc3ccccc3c2n1	1.07	1.19
COc1cccc(CNC(=O)c2cnn3c(C)c(Cc4cc(C)ccc4C)c(C)nc23)c1	0.975	-0.971
CCc1ccccc1Nc1nc(-c2ccc(Cl)cc2)nc2ccccc12	1.45	4.78
Oc1ccc(-c2cn3c(n2)SCC3)cc1	1	0.0176
CC(C)=C1C2C=CC1C1C(=O)N(c3cccc(C(=O)O)c3)C(=O)C21 (configuration not stated)	1.09	1.15
COc1ccc(NC(=O)Cc2c(C(=O)O)[nH]c3ccccc23)cc1OC	1.01	0.303
COc1ccccc1-c1nnc(SCC(=O)N2CCN(c3ccccc3)CC2)o1	0.917	-0.191
CC1CCCCC1NC(=O)C1CCN(S(=O)(=O)c2ccc3c(c2)CCC(=O)N3)CC1 (configuration not stated)	1.06	1.48
CCC(=O)N1CCc2cc(S(=O)(=O)CCC(=O)NC3CCCC3)ccc21	0.991	-0.287
Cn1c(=O)c(=O)n(C)c2cc(S(=O)(=O)N3CCCC3C(=O)Nc3cccc(F)c3)ccc21 (configuration not stated)	1.13	1.25
CC(C)c1ccc(Nc2c(-c3cccnc3)nc3ccc(Cl)cn23)cc1	1.07	0.0924
Cc1cc(NC(=O)c2cccc(N3C(=O)c4ccccc4C3=O)c2)no1	1.06	1.51
CCOC(=O)c1c(C)n(CCc2ccc(OC)c(OC)c2)c2ccc(OC)cc12	0.863	-1.99
Cc1cccc(CSc2nc3ccncc3n2Cc2ccccc2C)c1	0.81	-2.7

Laid out differently: results already given
Every second line gives: CBX7 AlphaScr, CBX7 AlphaScr z-score
> CCCCN(CC)CCCNC(=O)C1CCN(c2nc3ccc(CC)cc3s2)CC1
  1.8, 8.8
> Cc1cc(NC(=O)c2cccc(N3C(=O)c4ccccc4C3=O)c2)no1
  1.06, 1.51
> Cc1nc(Oc2ccc(Cl)cc2)c2oc3ccccc3c2n1
  1.07, 1.19
> O=C(O)c1ccc(-n2nnnc2SCc2ccccc2Br)cc1
  0.919, -0.774
> CCc1ccccc1Nc1nc(-c2ccc(Cl)cc2)nc2ccccc12
  1.45, 4.78

Some of these compounds in order of count of non-hydrogen atoms, falling.
SMILES	CBX7 AlphaScr	CBX7 AlphaScr z-score
COc1cccc(CNC(=O)c2cnn3c(C)c(Cc4cc(C)ccc4C)c(C)nc23)c1	0.975	-0.971
Cc1cccc(CSc2nc3ccncc3n2Cc2ccccc2C)c1	0.81	-2.7
O=c1cc(-c2ccccc2)nc(SCc2nc3ccccc3[nH]2)[nH]1	1.11	1.23

Going on with the list:
SMILES	CBX7 AlphaScr	CBX7 AlphaScr z-score
Cc1ccc(-c2cc(C(F)(F)F)n3ncc(C(=O)Nc4cccc(C)c4Cl)c3n2)cc1	0.848	-1.96
CC(=O)Oc1ccc(NC(=O)CC2Sc3ccc(C(F)(F)F)cc3NC2=O)cc1 (configuration not stated)	1.07	1.87
CC1CCCCN1C(=O)c1ccc2c(c1)N(Cc1ccccc1)C(=O)c1ccccc1S2(=O)=O (configuration not stated)	1.08	1.22
Cc1cc(OCCc2c(C)n[nH]c2C)cc(C)c1Cl	0.879	-2.39
c1cnc2nc(CSc3ncn[nH]3)cn2c1	1.08	0.983
Clc1ccc(-c2nc(-c3ccccn3)no2)c(Cl)c1	1.05	1.74
CCOC(=O)c1c(NC(=O)c2cc(Cl)ccc2OC)sc2c1CCC(C)C2 (configuration not stated)	1.17	0.422
CC1CCN(S(=O)(=O)c2ccc(NC(=O)Cc3ccccc3)cc2)CC1	1.2	1.93
CCCCCCn1c(COc2ccc(OC)cc2)nc2ccccc21	1.12	1.32
CCCNC(=O)Cn1cnc2sc(C(=O)Nc3ccc(OC)c(OC)c3)c(C)c2c1=O	0.967	-1.09
COc1cccc(NC(=O)Cn2cnc3c2c(=O)n(C)c(=O)n3C)c1	0.983	-0.483
COc1cccc(-c2nc(-c3ccc(NC(=O)c4cccs4)cc3)no2)c1	1.05	0.462
CCC(=O)N1CCc2cc(S(=O)(=O)NC(C(=O)NCC3CCCO3)C(C)C)ccc21 (configuration not stated)	1.16	2.21
COc1ccc(-c2cc(C(F)(F)F)n3ncc(C(=O)N(C)CCO)c3n2)cc1OC	1.02	0.381
COc1ccccc1C(=O)Nc1ccc(NC(=O)C(F)(F)F)cc1	0.932	-0.656
CN1CC(=O)Nc2ccc(F)cc2C1=O	0.986	-0.245
COc1ccc(NC(=O)c2cn(CC(C)C)c(=O)c3cc(OC)c(OC)cc23)cc1Cl	1.05	1.2
CCCNc1c(NC2CCN(C(=O)OCC)CC2)c(=O)c1=O	0.809	-2.28
CCc1ccccc1NC(=O)CCNS(=O)(=O)c1ccc2c(c1)CCC(=O)N2	0.995	-0.105
O=C1CCc2cc(S(=O)(=O)N3CCCC3C(=O)O)ccc2N1 (configuration not stated)	0.967	-0.59
CCCCn1c(CCNC(=O)c2ccccc2)nc2ccccc21	0.979	-0.3
CCOc1ccc(CCNC(=O)CCc2nc3ccccc3[nH]2)cc1OCC	1.04	0.445
COc1cc(NC(=O)c2c(-c3ccccc3)noc2C)c(OC)cc1NC(=O)c1ccccc1	0.886	-1.31
CCCNC(=O)C1CC(c2cc(OC)ccc2OC)=NO1 (configuration not stated)	1.05	1.76
CCOC(=O)c1cnc2c(OC)cccc2c1NCCCO	1	0.00327

A run of entries taken from the entries so far, for reference:
SMILES	CBX7 AlphaScr	CBX7 AlphaScr z-score
COc1cc(NC(=O)c2c(-c3ccccc3)noc2C)c(OC)cc1NC(=O)c1ccccc1	0.886	-1.31
CCCNC(=O)C1CC(c2cc(OC)ccc2OC)=NO1 (configuration not stated)	1.05	1.76
CCOC(=O)c1cnc2c(OC)cccc2c1NCCCO	1	0.00327

More entries
SMILES	CBX7 AlphaScr	CBX7 AlphaScr z-score
Nc1nonc1C(=O)NCCNS(=O)(=O)c1ccc(Cl)cc1	0.984	-0.181
COc1ccc(NC(=O)CN2C(=O)c3ccccc3Sc3ccc(C(=O)N4CCCC4)cc32)cc1OC	1.03	0.698
O=C(NC(c1ccccc1)c1ccccc1)C1CCN(S(=O)(=O)c2cccs2)CC1	1.01	0.00655
Cc1cc(C)nc(Nc2n[nH]c(-c3ccncc3)n2)n1	1	0.0132
CCC(C)Sc1oc(-c2cccs2)nc1S(=O)(=O)c1ccc(Br)cc1 (configuration not stated)	0.978	-0.0388
Cc1cc(OCC(O)CN2CCN(c3cccc(Cl)c3)CC2)ccc1C(C)C (configuration not stated)	0.937	-0.565
COc1ccc(CN2C(=O)CCC2(C)C(=O)NC2CCCCC2)c(OC)c1 (configuration not stated)	1.28	3.6
CCCCCOc1ccc(CC2CCC(=O)NC2=O)cc1 (configuration not stated)	0.964	-1.01
COc1cc2c(cc1OC)C1C(C(=O)Nc3ccc(F)c(Cl)c3)c3ccccc3C(=O)N1CC2 (configuration not stated)	0.918	-2.19
COc1cccc(NC(=O)CSc2nnc(-c3c[nH]c4ccccc34)n2C)c1	0.978	-0.382
CCc1ccc(NC(=O)Cn2cc(S(=O)(=O)c3ccc(C)c(C)c3)c(=O)c3ccccc32)cc1	1.04	0.514
CC(=O)c1ccc(-n2c(C)c(C(C)=O)c3cc(O)ccc32)cc1	0.823	-1.93
Cc1onc(-c2ccccc2Cl)c1C(=O)Nc1ccc2c(c1)Cc1ccccc1-2	0.803	-2.71
c1nc(NC2CCCCC2)c2c3c(sc2n1)CCC3	1.06	0.639
COc1cccc(NC(=O)C2CC3c4ccccc4C2c2ccccc23)c1 (configuration not stated)	1.07	2.09
O=C(Nc1cccc(Cl)c1)c1ccc(CNc2c(N3CCCCC3)c(=O)c2=O)cc1	1.38	0.868
Cc1cc(C(=O)NCCCN2C(C)CCCC2C)n(-c2ccccc2)n1 (configuration not stated)	0.997	-0.134
O=C(Nc1cccc2ccc(-c3cnc4ccccc4c3)nc12)c1ccccc1	0.944	-1.52
CCOC(=O)c1ccc(NC2c3ccccc3C(=O)N2c2ccc(OCC)cc2)cc1 (configuration not stated)	0.919	-2.74
CC1CN(S(=O)(=O)c2cccc(-c3cn4cc(Cl)ccc4n3)c2)CC(C)O1 (configuration not stated)	1.05	2.06
CCCNC(=O)Cn1cnc2sc(C(=O)Nc3cc(Cl)c(OC)cc3OC)c(C)c2c1=O	1.05	0.648
Clc1ccc(-n2ncc3c(NCc4cccs4)ncnc32)cc1	1.05	0.164
CC1CCN(S(=O)(=O)c2ccc3[nH]c(=O)cc(C(=O)NCCCN4CCCCC4)c3c2)CC1	1.13	2.47
CCOc1ccc(CCNC(=O)CN2CCN(Cc3ccc(F)cc3)C2=O)cc1OCC	1.06	0.792
Cc1ccc(Cc2c(C)nc3nc(SCC(=O)NCc4ccc(F)cc4)nn3c2C)cc1	1.21	1.21

Next compounds follow.
SMILES	CBX7 AlphaScr	CBX7 AlphaScr z-score
Cc1ccc(NC(=O)C2CCCN2S(=O)(=O)c2ccc3c(c2)n(C)c(=O)c(=O)n3C)cc1 (configuration not stated)	0.992	-0.073
C=CCNC(=O)c1cc(-c2ccc(Br)cc2)on1	0.877	-3.55
CCc1ccc2oc(-c3cccc(NC(=O)c4cc(Br)ccc4Cl)c3)nc2c1	0.991	-0.235
COc1ccc(C2(CNS(=O)(=O)c3ccccc3)CCCC2)cc1OC	0.986	-0.219
COc1ccc(OC)c(NC(=O)CSc2nccn2-c2ccccc2)c1	0.765	-8.83
Cc1cccc(NC(=O)C2CCN(S(=O)(=O)c3cccnc3)CC2)c1C	1.11	2.97
COc1cc(C(=O)NCC2(c3ccccc3)CCOCC2)cc(OC)c1OC	0.968	-0.638
Cc1ccccc1CN1C(=O)CSc2ccc(C(=O)N3CCC4(CC3)OCCO4)cc21	1.07	1.45
COCCNC(=O)c1ccc2c(c1)nc(C)n2-c1cccc(F)c1	1.04	1.75
Cn1cc(CC(=O)NCCCN2CCCC2=O)c2ccccc21	0.993	-0.122
COc1ccc(Nc2ncc(C(=O)Nc3ccc(F)cc3F)c3ccccc23)cc1	1	0.0358
CC1=Nc2cc(C(=O)O)ccc2Sc2ccc(Br)cc21	0.978	-0.617
CCCCN(C)Cc1c(C)[nH]c2ccccc2c1=O	1.07	1.12
CCOC(=O)c1cnc2ccc(OCC)cc2c1NCCc1ccc(OC)c(OC)c1	1.11	0.127
COc1ccc(Br)cc1CNC(=O)CCc1cn(Cc2ccccc2)c2ccccc12	0.878	-3.65
CCOc1ccc(NC(=O)CN2C(=O)CC(c3ccc(OC)c(OC)c3)Sc3ccccc32)cc1 (configuration not stated)	0.797	-2.88
O=C(CC1(O)C(=O)Nc2ccccc21)c1ccc2c(c1)CCCC2 (configuration not stated)	0.957	-0.0747
CCOc1cc2c(cc1OCC)C(c1ccc(Cl)cc1)NCC2 (configuration not stated)	1.01	0.0457
COc1ccc(OC)c(-c2cc(C(=O)Nc3c(C)nn(Cc4ccccc4Cl)c3C)no2)c1	1.07	0.519
O=C(CCS(=O)(=O)c1nc(-c2cccs2)cc(C(F)(F)F)n1)Nc1cccc(O)c1	1.02	0.549
Cc1cc2ncn(Cc3ccccc3Cl)c2cc1C	0.694	-7.64
COc1ccc(NC(=O)CC23CC4CC(C2)CC(n2nnc(C)n2)(C4)C3)cc1	0.996	-0.085
CSc1cccc(Nc2cc(C(=O)NCc3ccccc3)c3ccccc3n2)c1	1.36	0.36
O=C(Cn1ncc2c1-c1ccccc1OC2)N1CCCC1	1.02	0.273
CC(=O)N1CCc2cc(S(=O)(=O)NCCc3cccc(C)c3)ccc21	1.16	1.14

Following part
SMILES	CBX7 AlphaScr	CBX7 AlphaScr z-score
COc1ccc(-c2nnc(-c3ccc(F)cc3)o2)cc1	1.06	0.867
CCCc1cc(=O)[nH]c(SCc2nc3ccccc3n2C)n1	1.04	1.14
COc1cccc(NC(=O)c2sc3ncn(CC(=O)Nc4ccccc4OC)c(=O)c3c2C)c1	1.21	2.07
COC(=O)c1ccc2nc(-c3ccc(C)cc3)c(-c3ccc(C)cc3)nc2c1	1.32	2.08
CCc1ccccc1NC(=O)c1c(-c2ccccc2Cl)noc1C	0.99	-0.0445
CCOc1cccc(C(=O)Nc2c(C(=O)c3ccc(C)cc3)oc3ccccc23)c1	1.44	1.55
CCOC(=O)C1CCCN(c2c(NCCCN3CCCCCC3)c(=O)c2=O)C1 (configuration not stated)	0.988	-0.281
CCc1ccc(Nc2cc(C(=O)NCCCOC(C)C)c3ccccc3n2)cc1	1.04	1.01
CCc1ccccc1NC(=O)c1cc(-c2ccc3c(c2)OCO3)on1	0.948	-0.711
O=S(=O)(c1ccccc1)c1nc(-c2ccccc2Cl)oc1N1CCCCCC1	0.817	-4.83
CCCSc1oc(-c2ccccc2)nc1S(=O)(=O)c1ccc(Cl)cc1	1.18	6.19
CC(C)N1C(=O)CCC1C(=O)NCc1ccc(F)cc1Cl (configuration not stated)	1.02	0.246
CCOc1cccc(C(=O)Nc2nc(-c3ccc(OC)c(Br)c3)cs2)c1	1.05	0.463

An excerpt (hit frequency here may not be typical).
